ALR H2O2 inh – inhibitors of human sulfhydryl oxidase ALR | P55789 | AID 485317 | purified ALR, DTT oxidation, H2O2 HRP-luminol luminescence | inhibition, % (test concentration not listed) | 3.8% of 290,000 active;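 active = mean and each replicate at 75% or more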;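 also: stock transfer was 7.5 nL into about 7.5 µL; 0% = neutral wells and 100% = wells with inactivated enzyme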
Ecoli growth – inhibitors of Escherichia coli growth | 0.21% of 330,000 active | OD600 absorbance (test concentration not listed) | OD600, 23 h; hits give low values;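 active = OD600 absorbance below the run mean of sample wells minus 3.6 SD, in any replicate, cut at about 0.56 in these data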;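 also: stock transfer was 300 nL into about 60 µL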
FGF22 binding – FGF22 (human) thermal shift binding; recombinant FGF22 thermal shift, SYPRO orange fluorescence; percent of sucrose octasulfate shift, DMSO zero; 1.5% of 340,000 active; calls only at 9.99 µM; Q9HCT0;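 active = melting point raised past a set limit in the mean and every replicate; three in four hits are not shown here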
Target sequence (Q9HCT0 whole entry, looked up): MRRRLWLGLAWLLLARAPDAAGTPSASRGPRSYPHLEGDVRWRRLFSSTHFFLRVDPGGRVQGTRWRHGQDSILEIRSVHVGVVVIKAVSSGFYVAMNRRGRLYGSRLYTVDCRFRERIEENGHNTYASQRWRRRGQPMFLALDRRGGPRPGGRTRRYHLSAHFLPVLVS
HNF4A DNA FP – change in binding of human HNF4 alpha to DNA. P41235. HNF4a-FITC DNA binding, fluorescence polarization, 1 h. activity change, % at 10 µM. 0.3% of 360,000 active; in the data active = activity change above about 30%, passing the limit was not always enough;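 also: controls were the assay level and a saturating level of protein; the project sought stronger binding though the title names inhibitors; some compounds called inactive have numbers as strong as hits; positive values seem to mean higher polarization but the record does not say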
Target sequence (P41235 whole entry, looked up): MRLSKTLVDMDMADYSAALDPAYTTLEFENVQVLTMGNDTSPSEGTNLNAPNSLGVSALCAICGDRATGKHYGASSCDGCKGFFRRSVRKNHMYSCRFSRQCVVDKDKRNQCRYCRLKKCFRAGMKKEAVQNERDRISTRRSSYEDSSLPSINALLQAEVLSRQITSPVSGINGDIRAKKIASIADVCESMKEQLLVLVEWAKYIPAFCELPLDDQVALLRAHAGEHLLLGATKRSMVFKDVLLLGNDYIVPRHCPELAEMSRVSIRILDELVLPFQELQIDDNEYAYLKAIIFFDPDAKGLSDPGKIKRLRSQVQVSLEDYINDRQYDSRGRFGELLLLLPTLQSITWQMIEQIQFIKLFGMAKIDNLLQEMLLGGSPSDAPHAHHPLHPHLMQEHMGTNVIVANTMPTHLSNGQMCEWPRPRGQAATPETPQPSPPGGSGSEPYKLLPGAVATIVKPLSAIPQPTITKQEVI
Ecoli rRNA inh – inhibitors of bacterial rRNA selective over humanized ribosomes; E. coli WT GFP vs humanized-ribosome RFP mutants, fluorescence, 24 h; hits give low values; DMSO median 0, no signal -100; GFP signal change (wild-type ribosome), % (no concentration beside the values); 1.6% of 350,000 active;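 active = significant combined selectivity score with lowered wild-type GFP, culture density cut under 30%, mutant RFP and density less affected; inactive = any of these conditions unmet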; also: one replicate is shown; some compounds called inactive have numbers as strong as hits
Beta2AR agonist – activates human beta-2 adrenergic receptor causing internalization; P07550; Am2.2-beta2AR cells, FAP receptor internalization, flow cytometry; reference of the scale not given here; response, % (test concentration not listed); AID 504454; 0.43% of 340,000 active;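 active = response above a set limit, near 3 SD of response in nonfluorescent compounds, cut at about 42% in these data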;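 also: stock transfer was 100 nL into about 11 µL; a reference agonist was the positive control; negative values mostly stem from fluorescent compounds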
Target sequence (P07550 whole entry, looked up): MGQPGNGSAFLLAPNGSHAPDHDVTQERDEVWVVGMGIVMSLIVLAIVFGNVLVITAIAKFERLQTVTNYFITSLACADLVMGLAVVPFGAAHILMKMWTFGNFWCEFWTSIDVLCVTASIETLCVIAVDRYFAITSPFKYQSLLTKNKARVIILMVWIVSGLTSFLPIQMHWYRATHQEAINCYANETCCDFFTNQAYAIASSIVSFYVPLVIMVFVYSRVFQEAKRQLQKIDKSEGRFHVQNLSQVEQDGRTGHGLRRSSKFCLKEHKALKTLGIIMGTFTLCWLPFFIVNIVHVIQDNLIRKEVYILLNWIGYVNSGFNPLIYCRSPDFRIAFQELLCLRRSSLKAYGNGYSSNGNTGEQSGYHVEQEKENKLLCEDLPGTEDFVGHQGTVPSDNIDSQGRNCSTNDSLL
UCH37 inh – inhibitors of human deubiquitinating enzyme UCH37. 0.33% of 330,000 active. purified proteasome/UCH37, Ub-AMC cleavage fluorescence. Q9Y5K5. inhibition, % (no concentration beside the values);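 active = mean of two replicates above 20%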;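 also: 0% = compound-free wells with enzyme and 100% = wells lacking proteasome; stock transfer was 100 nL into about 20 µL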
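system = Proteasome-associated human UCH37 deubiquitinase | amount = 0.15 nM proteasome as dispensed | medium = pH 7.4 Tris-HCl (50 mM) with ovalbumin, ATP-MgCl2, DTT | incubation = 30 min preincubation with enzyme, 25 min cleavage at room temperature | detection = AMC fluorescence 355/460 nm | read-out basis = percent inhibition | controls = no-proteasome and no-compound wells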
Ecoli rRNA inh OD600 – further read-out of Ecoli rRNA inh, marked with its call; OD600 change, %; measured here: OD600 growth;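 optical density of the mix in the first replicate; 0 = DMSO median and -100 = no signal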
Ecoli rRNA inh RFP – recorded beside Ecoli rRNA inh, whose call it bears; RFP signal change, %; measured here: RFP humanized mutant strains;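 first replicate; 0 = DMSO median and -100 = no signal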
* marks the source's active call; other numbers are inactive results; i = inactive; . = not tested or not shown. Not all compounds are listed; count on the stated rates, not on these rows.

Values run as follows: Ecoli rRNA inh OD600	HNF4A DNA FP	Ecoli growth	Ecoli rRNA inh RFP	FGF22 binding	UCH37 inh	Ecoli rRNA inh	Beta2AR agonist	ALR H2O2 inh
- CS(=O)(=O)c1ccc2nc(NC(=O)C3CC(=O)N(c4ccc(F)cc4)C3)sc2c1 (stereo not drawn)
  1.1	8.8	0.658	1.7	i	3.8	-4.2	1.9	-9.3
- CCn1c(COc2ccccc2)nnc1SCC(=O)NC1CC1
  4.7	-1.4	0.692	-1.0	i	1.7	-1.2	2.1	61.1
- COc1ccc(C(C(=O)NC2CCCC2)N(C(=O)c2ccco2)c2ccc(OC)c(OC)c2)cc1 (stereo not drawn)
  .	0.0	0.727	.	.	2.9	.	-7.9	-15.6
- CC(=O)Nc1ccc(NC(=O)C(C)OC(=O)c2ccc3ccccc3n2)cc1 (stereo not drawn)
  1.6	-2.4	0.666	-0.1	i	2.8	8.3	-1.9	.
- O=C(CCCNC(=O)/C(=C\c1ccc(F)cc1)NC(=O)c1ccccc1)OCc1ccccc1
  .	-3.4	.	.	.	0.7	.	7.2	-34.4
- Cc1ccc2cc(NC(=O)C3(C)CCN3CC(C)C)ccc2n1 (stereo not drawn)
  -0.1	2.1	.	3.0	i	.	-1.7	.	.
- COc1ccc(NC(=O)C2CCN(C(=O)NC3CCCCC3)CC2)c(OC)c1
  .	1.0	0.738	.	.	1.7	.	-0.1	.
- c1ccc(-c2nnc(SCc3nc4ccccc4[nH]3)n2Cc2ccco2)cc1
  .	3.8	0.75	.	.	-1.6	.	-11.9	-2.5
- CC(=O)N1c2ccc(S(=O)(=O)N3CCC(C(=O)Nc4ccc(C)cn4)CC3)cc2CC1C (stereo not drawn)
  -1.5	1.1	0.719	1.6	i	1.2	2.1	-2.6	-11.7
- O=C(CSc1nnc(-c2ccc(F)cc2)n1CC1CCCO1)NCc1ccco1 (stereo not drawn)
  1.5	3.8	0.712	3.4	i	0.6	-1.6	4.7	-1.1
- COc1ccc(-c2nc(CSCC(=O)NCCCN3CCCC3=O)c(C)o2)cc1
  0.9	3.9	0.675	-1.0	i	-1.7	-1.5	-0.4	96.5*
- Cc1cnn(C(=S)NCCc2ccccc2)c1
  .	0.9	0.718	.	.	3.2	.	-2.1	.
- O=C(CCNc1ccccc1)c1ccc2c(c1)OCO2
  .	0.1	0.675	.	.	4.2	.	1.3	2.4
- O=C(c1ccco1)N(Cc1cccc(F)c1)C1CCS(=O)(=O)C1 (stereo not drawn)
  5.3	0.5	0.709	-2.7	i	1.5	8.0	-2.4	20.9
- CC(C)(C)NC(=O)C(c1cccs1)N(CC1CCCO1)C(=O)Cn1nnc(-c2cccs2)n1 (stereo not drawn)
  .	-1.8	0.705	.	.	-1.4	.	-11.9	-2.1
- Cc1ccc(NC(=O)C2(C)CCN2C(=O)Cc2ccc(C(C)C)cc2)cc1 (stereo not drawn)
  -29.7	-4.4	.	2.2	i	.	-12.2	.	.
- CCOC(=O)N1CCN(Cc2ccccc2F)CC1
  4.7	-0.1	0.723	-8.3	i	2.6	3.5	5.0	9.2
- COCc1nnc(NC(=O)c2ccc(S(=O)(=O)N3CCCC3)cc2)o1
  -9.6*	5.0	0.694	-3.8*	i	6.1	-23.2*	-1.9	-6.1
- CCn1nc(C)c([N+](=O)[O-])c1C(=O)NNC(=O)c1ccccc1Cl
  18.9	-2.1	0.668	2.3	i	1.9	4.8	-2.4	-5.3
- CC1(C(=O)OCC(=O)N2c3ccccc3Sc3ccccc32)CC1(Cl)Cl (stereo not drawn)
  -0.3	-0.7	0.728	-1.3	i	6.2	-0.8	-2.8	-0.6
- COc1nc(N/N=C/c2cc3c(cc2Br)OCO3)nc(N2CCOCC2)n1
  .	-1.2	.	.	.	.	.	5.3	-4.1
- CCOC(=O)c1c(C)[nH]c(C(=O)OCc2nc3ccsc3c(=O)[nH]2)c1C
  -23.7	2.6	.	5.6	i	.	-9.1	.	.
- O=C(c1ccc(N2CCN(CCO)CC2)nc1)N1CCOCC1
  -1.8	3.1	0.69	1.6	i	0.2	-1.1	-6.1	-15.4
- CC(=O)N(C)c1ccc(NC(=O)c2ccco2)cc1
  .	-0.6	0.726	.	.	-2.9	.	-8.2	1.1
- O=C(Oc1cc(=O)oc2ccccc12)c1cccnc1Cl
  -45.0	-0.2	0.686	-12.8	i	2.3	-33.9	7.0	-23.6
- CC(C)n1c(=O)[nH][nH]c1=S
  -1.7	-3.7	0.689	2.8	i	-0.2	27.9	-8.3	15.1
- O=C(Nc1cccnc1)c1ccc(COCC(F)(F)F)cc1
  3.4	2.2	0.665	-7.4	.	-0.8	-0.7	-3.5	-6.2
- CCN1Cc2c(/C=C/c3ccccc3)nc3ccc(OC)cc3c2N(c2cccc(Cl)c2)C1
  8.1	7.7	.	5.4	i	.	0.3	16.8	4.9
- O=C(O)COc1ccc2c(-c3ccccc3)cc(=O)oc2c1
  .	1.1	0.713	.	.	4.5	.	-4.4	2.1
- O=[N+]([O-])c1cccc(-c2nnc3ccc4ccccc4n23)c1
  .	-1.0	0.726	.	.	0.1	.	-2.9	-8.7
- CCCCc1nc2sc3c(=O)[nH]cnc3c2c2c1CCCC2
  1.1	3.2	0.714	-4.8	i	-8.6	7.1	-9.9	-5.0
- O=C(NCc1ccco1)C(C(=O)c1ccccc1)n1ccccc1=O (stereo not drawn)
  .	-3.3	0.648	.	.	3.1	.	4.4	0.2
- Cc1ccc(S(=O)(=O)CCC(=O)OCC(=O)Nc2cc(S(=O)(=O)N3CCOCC3)ccc2C)cc1
  13.1	1.6	0.692	-0.5	i	0.0	1.3	-7.6	-50.8
- COc1cc([N+](=O)[O-])ccc1NC(=O)/C=C/C(=O)O
  2.7	-0.3	0.678	-5.5	i	12.4	8.9	0.0	.
- COc1ccc([C@H]2CC(=O)C=C(c3cccc4c3Oc3ccccc3S4)C2)cc1
  7.8	-3.4	.	1.6	i	0.6	5.9	-9.2	-6.2
- Cc1cccc(NC(=S)N2CCC(O)CC2)c1C
  16.1	-1.4	0.725	-0.5	i	6.2	18.8	-1.8	-4.1
- Cc1ccccc1NC(=O)CCN1CCc2ccccc2C1
  8.1	2.4	0.708	1.0	i	4.2	14.6	-12.2	-20.4
- N#CCSc1nnc(-c2ccccc2O)n1CCc1ccccc1
  .	3.6	0.696	.	.	3.3	.	0.8	-2.0
- COc1ccc(NC(=O)c2ccc(Cl)nc2)cc1S(=O)(=O)N1CCOCC1
  .	-1.7	0.706	.	i	0.5	.	8.0	-0.5
- COc1ccccc1/C=C/C(=O)c1cc(Br)ccc1OC(=O)c1ccco1
  .	-2.7	0.808	.	.	2.9	.	24.5	-0.3
- CC(C)C1CC(c2csc(N)n2)CCO1 (stereo not drawn)
  .	-0.5	0.695	.	.	0.1	.	3.6	9.2
- COc1ccc(C(NC(=O)/C=C/c2ccco2)c2ccc(OC)c(OC)c2)cc1OC
  .	5.3	0.68	.	.	-1.2	.	-8.5	-5.6
- O=C(NCc1ccccc1F)c1ccc(S(=O)(=O)NCc2ccco2)cc1
  14.8	-1.9	0.688	-0.9	i	2.1	3.8	8.9	.
- CCOC(=O)C1CCCN(Cc2cc(=O)oc3cc(C)ccc23)C1 (stereo not drawn)
  -24.3	-1.2	0.691	-3.4	i	4.4	-28.6	18.0	2.6
- Cc1cc(C(=O)NCc2cccnc2)n(-c2ccccc2)n1
  16.6	-0.1	0.733	0.3	i	8.5	8.6	5.5	-11.1
- C/C(=N\NC(=O)c1ccc(Cl)cc1)c1cccnc1
  -8.8	1.6	.	-5.0	i	.	2.8	1.7	-0.9
- COc1cccc(OCc2cc(C(=O)N(C)Cc3nc4ccccc4[nH]3)no2)c1
  -30.4	-1.2	0.675	-1.4	i	-0.5	-26.1	-1.7	-2.7
- Cc1cc(C)cc(NC(=O)Cn2nnc3ccccc3c2=O)c1
  14.1	3.3	0.686	1.5	i	-3.3	16.9	1.4	3.1
- OC[C@@H]1CN(Cc2cccc(C(F)(F)F)c2)C[C@H](n2cnc3c(NCc4ccc(F)cc4)ncnc32)O1
  -5.5	4.1	.	2.0	i	.	-3.1	.	.
- C=CCCC(=O)Nc1nc(C)c(-c2csc(Nc3ccc(Cl)cc3Cl)n2)s1
  5.3	3.6	0.709	-6.2	i	-3.7	6.3	1.9	-8.1
- CSc1sc(C(=O)NCC2CC2)c2c1S(=O)(=O)N(C)c1ccccc1-2
  12.1	-1.3	0.678	1.6	i	-1.0	28.6	-7.5	0.4
- Cc1ccc(NC(=O)c2ccc3c(c2)C(=O)N(CC2CCCO2)C3=O)cc1C (stereo not drawn)
  6.0	-1.4	0.686	1.2	i	3.0	9.3	7.1	-5.9
- CCCN(C)C1CN(Cc2cn(CCCC(=O)OC)nn2)S(=O)(=O)C1 (stereo not drawn)
  6.7	3.2	.	-0.9	i	.	13.2	.	.
- Cc1ccccc1C(=O)N1CCN(CCNC(=O)C(=O)Nc2ccc(Br)cc2)CC1
  5.3	1.1	0.698	0.2	i	2.4	3.3	-10.1	-3.4
- N=c1ccn(Cc2ccccc2Cl)cc1
  .	3.0	0.748	.	.	3.8	.	-1.7	4.1
- O=C(CSc1nnc2c(n1)[nH]c1ccc(F)cc12)NC1CC1
  3.6	-2.0	0.673	-1.5	i	2.5	3.3	2.2	0.8
- CCOc1ccc(CNC(=O)CCCn2nc(CC)n3c(cc4occc43)c2=O)cc1
  -8.5	1.3	0.699	-0.3	i	0.6	-4.0	-3.4	2.4
- O=CN1CCN(C(=O)CN2C(=O)c3ccccc3C2=O)CC1
  .	-4.1	0.663	.	.	4.6	.	0.1	2.5
- CC(C)NC(=O)CN1CCC(O)(c2ccccc2)CC1
  .	-0.2	0.706	.	.	1.6	.	7.6	8.4
- COc1ccc(CCNC(=O)CCC(=O)Nc2nnc(C(C)C)s2)cc1OC
  .	-1.3	0.713	.	.	-2.3	.	2.8	-8.9

Carrying on:
Values run as follows: Ecoli rRNA inh OD600	HNF4A DNA FP	Ecoli growth	Ecoli rRNA inh RFP	FGF22 binding	UCH37 inh	Ecoli rRNA inh	Beta2AR agonist	ALR H2O2 inh
- Cc1ccc(S(=O)(=O)N2CCN(C(=O)CN3CCN(c4ccc(O)cc4)CC3)CC2)cc1
  5.0	4.8	.	0.0	i	.	2.5	-3.6	.
- C=CCc1cccc(/C=N/NC(=O)C(C)Nc2ccc(C)cc2)c1O (stereo not drawn)
  -15.8*	2.0	.	-11.9*	i	.	-31.8*	18.2	-4.9
- Cc1nn(CC(=O)NCCc2ccccc2)c(=O)c2cc3occc3n12
  9.1	-2.2	0.672	-1.9	i	0.2	2.5	-7.8	0.3
- COc1ccc(C(C(=O)NC2CCCCC2)n2c(=O)c(-c3ccco3)nc3ccccc32)cc1 (stereo not drawn)
  3.0	27.9	.	4.1	i	.	6.7	.	.

A section from the list above:
Values run as follows: Ecoli rRNA inh OD600	HNF4A DNA FP	Ecoli growth	Ecoli rRNA inh RFP	FGF22 binding	UCH37 inh	Ecoli rRNA inh	Beta2AR agonist	ALR H2O2 inh
- C=CCc1cccc(/C=N/NC(=O)C(C)Nc2ccc(C)cc2)c1O (stereo not drawn)
  -15.8*	2.0	.	-11.9*	i	.	-31.8*	18.2	-4.9
- Cc1nn(CC(=O)NCCc2ccccc2)c(=O)c2cc3occc3n12
  9.1	-2.2	0.672	-1.9	i	0.2	2.5	-7.8	0.3
- COc1ccc(C(C(=O)NC2CCCCC2)n2c(=O)c(-c3ccco3)nc3ccccc32)cc1 (stereo not drawn)
  3.0	27.9	.	4.1	i	.	6.7	.	.

Screening results (PubChem BioAssay)
